EPAC2 ant val = human EPAC2 antagonism, validation; EPAC2 Rap1B BODIPY-GDP exchange, fluorescence; 16,000 compounds, 1.7% hits; Potency, µM (titrated, usually from 112 µM), for the others: at the top dose activity, negative = inhibition, most hits filed as inhibitors; active means well fitted inhibition curve with a large enough effect; inconclusive means small, poorly fitted or top-dose-only effect; inactive means no such curve, though single readings can be large or run the other way;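 further: 100% = activation by cAMP agonist control; nearly all actives have a fitted effect of over 40% in size; the record reuses the description of the EPAC1 agonist screen; inactives centre near -10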
Target sequence (Q8WZA2 whole entry, looked up): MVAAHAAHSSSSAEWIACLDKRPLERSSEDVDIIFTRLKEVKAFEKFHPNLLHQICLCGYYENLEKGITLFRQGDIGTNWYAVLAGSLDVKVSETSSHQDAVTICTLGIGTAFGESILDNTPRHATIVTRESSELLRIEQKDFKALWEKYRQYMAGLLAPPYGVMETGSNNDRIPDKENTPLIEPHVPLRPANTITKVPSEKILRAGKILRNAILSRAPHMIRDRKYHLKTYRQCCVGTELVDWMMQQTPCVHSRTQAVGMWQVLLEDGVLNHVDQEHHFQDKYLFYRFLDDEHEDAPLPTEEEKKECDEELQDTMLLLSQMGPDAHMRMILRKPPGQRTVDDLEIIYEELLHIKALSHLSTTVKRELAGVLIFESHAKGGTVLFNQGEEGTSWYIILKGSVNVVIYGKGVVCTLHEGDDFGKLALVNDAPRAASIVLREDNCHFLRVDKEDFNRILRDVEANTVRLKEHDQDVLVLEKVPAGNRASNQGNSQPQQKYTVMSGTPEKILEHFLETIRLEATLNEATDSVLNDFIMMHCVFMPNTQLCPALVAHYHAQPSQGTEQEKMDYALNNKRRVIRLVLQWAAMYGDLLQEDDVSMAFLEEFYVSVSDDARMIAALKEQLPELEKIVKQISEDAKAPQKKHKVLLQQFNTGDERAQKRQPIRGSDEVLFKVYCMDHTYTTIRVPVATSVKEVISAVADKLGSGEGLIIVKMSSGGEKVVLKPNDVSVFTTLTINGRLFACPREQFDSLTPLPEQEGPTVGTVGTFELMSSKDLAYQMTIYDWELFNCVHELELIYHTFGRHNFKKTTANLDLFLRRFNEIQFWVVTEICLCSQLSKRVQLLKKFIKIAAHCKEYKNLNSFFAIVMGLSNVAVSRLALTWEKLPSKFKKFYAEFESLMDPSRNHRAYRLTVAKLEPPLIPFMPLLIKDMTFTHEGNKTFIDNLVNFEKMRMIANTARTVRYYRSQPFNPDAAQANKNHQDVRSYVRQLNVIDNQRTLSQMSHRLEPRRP
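Fluorescent exchange read-out: 100 nM EPAC2 with 250 nM RAP1B–BODIPY-GDP and 50 uM GDP; BODIPY-GDP release lowers fluorescence. Read at 480/540 nm every 5 min for 30 min at room temperature; normalized to 6.5 mM cAMP.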
The depositor's hits bear a star; ? = inconclusive; & = joins results of further samples; [ ] = dose if it differs, or a comment. Potency means the concentration at half of the fitted maximal effect.

Structure	EPAC2 ant val
O=Nc1c(-c2c(O)[nH]c3ccccc23)[nH]c2ccccc12	?
Oc1cc(O)cc(O)c1	21%
Cc1cc2c(c(-c3nc4ccccc4s3)c1)OC(CNC(=O)c1occc1C)C2 (stereo unspecified)	-12%
C[C@H](O)CO[C@H]1[C@H]2O[C@H]3[C@H](O)[C@@H](O)[C@@H](O[C@H]4[C@H](O)[C@@H](O)[C@@H](O[C@H]5[C@H](O)[C@@H](O)[C@@H](O[C@H]6[C@H](O)[C@@H](OC[C@H](C)O)[C@@H](O[C@H]7[C@H](O)[C@@H](OC[C@H](C)O)[C@@H](O[C@H]8[C@H](O)[C@@H](O)[C@@H](O[C@@H]([C@@H]1O)[C@@H](CO)O2)O[C@@H]8CO)O[C@@H]7CO)O[C@@H]6CO)O[C@@H]5CO)O[C@@H]4CO)O[C@@H]3CO	-24%
O=C(NCCNCC(O)COc1ccc(O)cc1)N1CCOCC1 (stereo unspecified)	4%
COc1cc(NCc2ccc3nc(N)nc(N)c3c2C)cc(OC)c1OC	14%
O=S(O)CO	-15%
CCOC(=O)C(CCc1ccccc1)NC(C)C(=O)N1CCCC1C(=O)O (stereo unspecified)	-6%
CS(=O)(=O)N1CCC[C@@]2(CCN(c3ccncc3)C2)C1	-18%
CNC1C(O)[C@@H]2OC(O[C@@H]3C(O)C(O)C(N)C[C@H]3N)C(N)C[C@H]2O[C@H]1O[C@@H]1OC(CO)C(N)C(O)C1O (stereo partly specified)	11%
CS(=O)(=O)Nc1ccc([N+](=O)[O-])cc1OC1CCCCC1	?
CCCCS(=N)(=O)CCC(N)C(=O)O (stereo unspecified)	-21%&-11%
NC1=NCCN1CC(=O)O	-14%
CCN(CC)CCOc1ccc2nc(N(C)C)sc2c1	-8%
Cc1ccc(S(=O)(=O)NC(=O)NC2CCCC2)cc1	-16%
COc1cc(-c2ccc(=O)[nH]n2)ccc1OC(F)F	?
O=C(Nc1nccs1)[C@@H]1CC=C[C@@H]2CCN(Cc3ccccc3)C(=O)[C@@H]21	-4%
CCC(=O)OC(OP(=O)(CCCCc1ccccc1)CC(=O)N1C[C@H](C2CCCCC2)C[C@H]1C(=O)O)C(C)C (stereo partly specified)	-26%
COc1cccc(C(=O)N(Cc2cc3cc4c(cc3nc2N(C)C)OCO4)CC2CCCO2)c1 (stereo unspecified)	-12%
NC(=O)c1ccc[n+]([C@@H]2O[C@H](COP(=O)([O-])OP(=O)(O)OC[C@H]3O[C@@H](n4cnc5c(N)ncnc54)[C@H](O)[C@@H]3O)[C@@H](O)[C@H]2O)c1	-8%[29.6 µM]
CNc1nc(-c2ccccc2CN(C)C)nc2ccccc12	-9%
CC(=O)[C@@]1(O)CC[C@H]2[C@@H]3C=C(Cl)C4=CC(=O)CC[C@]4(C)[C@H]3CC[C@@]21C	13%
CCN1CCC[C@H]1CNC(=O)c1c(OC)ccc(Br)c1OC	1%&-17%
O=S1(=O)CCOCCCN1Cc1ccc(F)cc1	20%
C=CC(C)(C)c1c2c(c(O)c3c(=O)c4ccc(O)c(O)c4oc13)C=CC(C)(C)O2	-17%
O=c1c(-c2ccc(F)cc2)nc2cnc(Oc3ccccc3)nc2n1C[C@H]1CCCO1	?
CC(C)Cn1c(=O)n(C)c(=O)c2[nH]cnc21	-15%&-11%&-5%&-11%
CCCCN(CCC#N)c1ccc(/C=C/c2ccnc3ccccc23)cc1	18%
IC(I)I	-9%
CCN(CC)CC(=O)Nc1c(C)cccc1C	-1%

Continued; the last 7 above are carried over.
Structure	EPAC2 ant val
O=S1(=O)CCOCCCN1Cc1ccc(F)cc1	20%
C=CC(C)(C)c1c2c(c(O)c3c(=O)c4ccc(O)c(O)c4oc13)C=CC(C)(C)O2	-17%
O=c1c(-c2ccc(F)cc2)nc2cnc(Oc3ccccc3)nc2n1C[C@H]1CCCO1	?
CC(C)Cn1c(=O)n(C)c(=O)c2[nH]cnc21	-15%&-11%&-5%&-11%
CCCCN(CCC#N)c1ccc(/C=C/c2ccnc3ccccc23)cc1	18%
IC(I)I	-9%
CCN(CC)CC(=O)Nc1c(C)cccc1C	-1%
Oc1c(Cl)cc(Cl)cc1Sc1cc(Cl)cc(Cl)c1O	56µM*
COC(=O)N1CCC[C@@]2(CCN(c3ccccn3)C2)C1	-11%
CC[C@H]1CN2CCc3cc(OC)c(OC)cc3[C@@H]2C[C@@H]1C[C@H]1NCCc2cc(OC)c(OC)cc21	-10%
CC1(C)O[C@@H]2C[C@H]3[C@@H]4C[C@H](F)C5=CC(=O)CC[C@]5(C)[C@H]4[C@@H](O)C[C@]3(C)[C@]2(C(=O)CO)O1	-2%[56.6 µM]
COc1ccc(CNc2nc(-c3ccc(N(C)C)cc3)nc3ccccc23)c(OC)c1	-15%
COc1ccc2c(c1)CCC1C2CC[C@@]2(C)C(O)CCC12 (stereo partly specified)	-13%
O=C(c1csnn1)N1CCC2(CC1)CCN(c1ccccc1)CC2	-14%
CCN1CCCC1CNC(=O)c1cnn(-c2nccc(-c3cccs3)n2)c1C(C)C (stereo unspecified)	?
Cn1c(=O)c(-c2ccccc2)nc2cncnc21	-16%
O=C(O)c1ccc2c(c1)OCO2	3%
CCn1c(-c2ccccc2F)nc2cc(NC(C)=O)cc(C(=O)NCc3ncc(C)[nH]3)c21	-19%
COc1ccc2c(c1)[C@@]1(C)CCC[C@](C)(CO)C1CC2 (stereo partly specified)	45µM*
Cc1cnc(CNc2cc(-c3ccccc3Cl)ncn2)cn1	-22%
COc1cccc(Cn2c(=O)c(-c3ccc(Cl)cc3)nc3cnc(N4CCOCC4)nc32)c1	-25%
CC(C)C[C@H](N)C(=O)N[C@H](C(=O)N[C@H](C(=O)N[C@@H](Cc1ccc(O)cc1)C(=O)N1CCC[C@H]1C(=O)N[C@@H](Cc1c[nH]c2ccccc12)C(=O)N[C@H](C(=O)N[C@@H](CCC(N)=O)C(=O)N[C@@H](CCCN=C(N)N)C(=O)O)[C@@H](C)O)C(C)C)C(C)C	-11%[11.4 µM]
COc1cc(=O)n2c(c1C(=O)NCc1nonc1C)CCN(C(=O)c1cccc(C)c1C)CC2	-30%
O=S(=O)(c1ccccc1)N1CCC[C@@]2(CCN(Cc3ccccc3)C2)C1	-30%
Cc1onc(-c2ccccc2)c1C(=O)NCCN1Cc2ccccc2OC(c2ccsc2)C1 (stereo unspecified)	-22%
CCCCCCCCCCCCCCCC[n+]1ccc(C)c2ccccc21	-48%
CCN(C)C(=O)Oc1cccc([C@H](C)N(C)C)c1	-13%
COCCn1c(=O)c(C)nc2cnc(N3CCNCC3)nc21	-17%
C=CCN1c2ccc(Br)cc2C(=O)CS1(=O)=O	?
COC(=O)c1ccccc1-c1cc(C)cc2c1OC(CNC(=O)c1cc(C)on1)C2 (stereo unspecified)	-25%
Cc1nc2cnc(Nc3ccccc3)nc2n(CCC#N)c1=O	-12%
Clc1ccc2ncnc(NCc3ccc4c(c3)OCO4)c2c1	-7%[151 µM]
COc1cc2nc(N(C)C)c(CNCc3nonc3C)cc2c(OC)c1OC	-13%
C[C@H]1OC(=O)CC[C@@H]2[C@]1(C)CCC1[C@@]2(C)CC[C@@]2(C)C3CC(C)(C)CC[C@]3(CO)CC[C@]12C (stereo partly specified)	-5%
CO[C@H]1C=CO[C@@]2(C)Oc3c(C)c(O)c4c(O)c(c(/C=N/N5CCN(C6CCCC6)CC5)c(O)c4c3C2=O)NC(=O)/C(C)=C\C=C[C@H](C)[C@H](O)[C@@H](C)[C@@H](O)[C@@H](C)[C@H](OC(C)=O)[C@@H]1C	?
COc1cc(OC)c(OC)cc1CN1CCCC(c2[nH]ncc2-c2cccc(C(F)(F)F)c2)C1 (stereo unspecified)	-14%
O=C1[C@H]2CCCC[C@H]2C(=O)N1CCCCN1CCN(c2nsc3ccccc23)CC1	-1%
COCCn1c(=O)c(-c2ccccc2)nc2cnc(OC)nc21	-32%
O=C(O)C[C@H]1c2cc(C(F)(F)F)ccc2S(=O)(=O)N1Cc1ccccc1	-15%
O=c1c(-c2ccccc2)nc2cnc(N3CCNCC3)nc2n1-c1ccccc1	-5%
CC(=O)OCC(=O)C1CCC2C3CCC4=CC(=O)CC[C@@]4(C)C3CC[C@]12C (stereo partly specified)	-10%
COc1c(-c2coc3cc4c(cc3c2=O)CC(O)C(C)(C)O4)ccc2c1C=CC(C)(C)O2 (stereo unspecified)	?
Nc1ccc(C(=O)O)c(O)c1	-16%&-21%
OC/C=C/c1ccc(O)c(O)c1	-5%
C[C@]12CCC(=O)C=C1CC[C@@H]1[C@@H]2[C@@H](O)C[C@@]2(C)[C@H]1CC[C@]2(O)C(=O)CO	-12%
O=C1O[C@H](CO)[C@@H](O)[C@H](O)[C@H]1O	-7%
COc1ccccc1-c1cc2c(c(OC)c1)OCCN(C(=O)Cn1nc(-c3ccccc3)c3ccccc3c1=O)C2	-20%
CC[C@@H](C(=O)[C@@H](C)[C@@H](O)[C@H](C)[C@@H]1O[C@@H]([C@@H](CC)C(=O)O)CC[C@@H]1C)[C@H]1O[C@]2(C=C[C@@H](O)[C@]3(CC[C@@](C)([C@H]4CC[C@](O)(CC)[C@H](C)O4)O3)O2)[C@H](C)C[C@@H]1C	?
COc1ccc(CNc2ncncc2-c2cccc(NS(C)(=O)=O)c2)c(OC)c1	-33%
COc1ccc(CN2CCCC(n3cc(C(=O)NC4CCCC4)nn3)C2)c2ccccc12 (stereo unspecified)	?
COc1cccc(-c2nc(NCc3ccc(OC)cc3OC)c3ccccc3n2)c1	-21%
C[C@@H]1[C@H](O)[C@@H](C)/C=C/C=C\C=C\C=C\C=C\C=C\C=C\[C@H](O[C@@H]2O[C@H](C)[C@@H](O)[C@H](N)[C@@H]2O)C[C@@H]2O[C@](O)(C[C@@H](O)C[C@@H](O)[C@H](O)CC[C@@H](O)C[C@@H](O)CC(=O)O[C@H]1C)C[C@H](O)[C@H]2C(=O)O (stereo in doubt)	1%
Cc1ccc(-c2ccnc(-n3ncc(C(=O)NCCN4CCOCC4)c3C3CC3)n2)o1	-9%
CC[C@@]1(O)C[C@H](O[C@H]2C[C@H](N(C)C)[C@H](O[C@H]3C[C@H](O)[C@H](O[C@H]4CCC(=O)[C@H](C)O4)[C@H](C)O3)[C@H](C)O2)c2c(cc3c(c2O)C(=O)c2c(O)cccc2C3=O)[C@H]1C(=O)OC	25%
Nc1ccc(Cc2ccc(C=O)cc2)cc1	-8%
COCC1CCCN(c2nc(CN3CCN(C(=O)c4ccco4)CC3)nc3ccccc23)C1 (stereo unspecified)	-26%
COc1cccc(-c2nc(Nc3ccncc3)c3ccccc3n2)c1	2%
C=CCN1CCc2c(cc(O)c(O)c2Br)[C@@H](c2ccccc2)C1	?
CN(C)c1ccc(-c2nc(N(C)Cc3ccco3)c3ccccc3n2)cc1	-16%
CN(C)C(=O)c1ccc(-c2nc(NC3CCNCC3)c3ccccc3n2)cc1	-9%
CN(C(Cc1ccc(OS(=O)(=O)c2cccc3cnccc23)cc1)C(=O)N1CCN(c2ccccc2)CC1)S(=O)(=O)c1cccc2cnccc12 (stereo unspecified)	17%
Cn1cccc1C(=O)N1CCC2(CCCN(Cc3ccncc3)C2)CC1	-22%
O=C1N=C2SCCN2C(=O)C1Cc1ccc(Cl)cc1 (stereo unspecified)	4%
COCCNc1nc(-c2ccccc2Cl)nc2ccccc12	-26%
N#Cc1cccc(-c2cc(NCc3cccnc3)ncn2)c1	-19%
CCCCCCCC(=O)CC[C@@H]1[C@@H](C/C=C\CCCC(=O)OC(C)C)[C@@H](O)C[C@H]1O	?
CC(C)C[C@@H](CO)N1CCN(CC(C)C)CCC1=O	?

(continued)
Structure	EPAC2 ant val
C=CC(=O)O	-8%
O=C(CCCCCCCCCCCCC1CCCC1)Nc1ccc(S(=O)(=O)c2ccc(NC(=O)CCCCCCCCCCCCC3CCCC3)cc2)cc1	-8%
CN(C)c1ccc(-c2nccc(NCc3ccccc3)n2)cc1	-13%
CCCCN1CC[C@H]2C=CC[C@@H](C(=O)N3CCOCC3)[C@H]2C1=O	3%
CCC(c1ccc(O)cc1)C(CC)c1ccc(O)cc1 (stereo unspecified)	?
CNCCc1cnc(CCC(c2ccccc2)c2ccccc2)[nH]1	9%
COc1cc(=O)n2c(c1C(=O)NCc1ccco1)CCN(Cc1cccc(Cl)c1)CC2	-17%
COc1ccc(-n2c(=O)c(-c3cc(F)cc(F)c3)nc3cncnc32)cc1	-12%
CC(C)(C)OC(=O)NS(=O)(=O)NOCc1ccccc1	-26%
COc1ccc2[nH]cc(CCNc3ncncc3-c3cccnc3)c2c1	-35%
COCCN1CCN(C(=O)c2sc3ncnc(NCC4CCCO4)c3c2C)CC1 (stereo unspecified)	-9%
COc1cc(-c2noc(C)c2C#Cc2ccccn2)cc(OC)c1OC	?
Cc1ccc(N)cc1O	16%[239 µM]
COc1cc(OC)c2c(=O)c(-c3ccccc3)coc2c1	?
CCc1noc(C)c1C(=O)N1CCOc2ccc(CN3CCN(c4ccccn4)CC3)cc2C1	0%

Assay outcomes: PubChem BioAssay, National Center for Advancing Translational Sciences (NCATS)

Only part of the results is shown, so the mix of outcomes need not match the whole.
